Assay outcomes: PubChem, National Center for Advancing Translational Sciences (NCATS)
TRPML1 inh – blocks the human TRPML1 channel; 0.02% of 390,000 active; activity change, negative = inhibition, % (no concentration beside the values); TRPML1-inducible cells, Ca2+ dye fluorescence, FDSS; active compounds read low; inhibition of EC80 agonist-evoked calcium signal; Q9GZU1; in the data active means activity change below about -50%; inconclusive means about -30% to -50%; inactive means above about -30%;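 note: stimulus is agonist 54-4 at its EC80 concentration; % is set by controls: 0 for no effect and ±100 for the full control effect; compound concentration not given in the record; the text of the record puts the active cut at -80%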
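Tet-induced TRPML1-DL cells loaded with Ca8 no-wash calcium dye were read kinetically on FDSS. Compound addition was followed by EC80 agonist 54-4 (4 uM final); inhibition was read over 110 s.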
ClpP mod – qHTS Assay for Activators of ClpP; 1.9% of 340,000 active; Potency, µM (series often up to 57.5 µM), for the others: at the top dose activity change, negative = active; ATP-dependent Clp protease proteolytic subunit (Bacillus subtilis (strain 168)), P80244; purified B. subtilis ClpP, FRET peptide cleavage, 20 min; active = well fitted falling curve with a large enough effect; inconclusive = small, poorly fitted or top-dose-only effect; inactive = no such curve, though single readings can be large or run the other way; note: potency is the fitted concentration of half-maximal effect; the source files actives as falling curves though it sought activators and does not explain the sign; nearly all actives have a fitted effect of over 65% in size; many hits overshoot -100%
Target sequence (P80244 whole entry, looked up): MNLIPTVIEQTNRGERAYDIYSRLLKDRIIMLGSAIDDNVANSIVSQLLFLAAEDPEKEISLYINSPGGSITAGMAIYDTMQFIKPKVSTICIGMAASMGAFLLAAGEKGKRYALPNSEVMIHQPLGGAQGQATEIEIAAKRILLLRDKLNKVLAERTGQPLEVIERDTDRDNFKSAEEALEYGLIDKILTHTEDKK
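Buffer: 100 mM Tris/HCl pH8, 100 mM KCl, 0.05% low protease BSA, 2.5% glycerol, 0.01% Tween-20. ClpP 10 microg/mL final; 20 min RT; delta FRET normalized to ADEP and DMSO controls.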
Menin-MLL FL inh – inhibitors of human menin-MLL interaction, wild-type MLL peptide; Fluorescence polarization, fluorescein-MLL peptide displacement from menin; FP activity change, % at 61.4 µM; 290,000 tested, under 10 active; inconclusive = falling polarisation curve, or a change in total fluorescence; inactive = total fluorescence flat and polarisation flat or rising; no compound was filed as active; the % refers to the polarisation; negative = inhibition;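 note: % of control where 0% means no effect; inhibitors lower the polarisation; unlabelled MLL peptide was the positive control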
Sfp inh – inhibitors of Bacillus subtilis Sfp phosphopantetheinyl transferase; AID 1490; Potency, µM, inactives show max response, negative = inhibition, most hits filed as inhibitors; Biochemical Sfp PPTase activity, qHTS; 3.5% of 310,000 active; active = well fitted inhibition curve with a large enough effect; inconclusive = small, poorly fitted or top-dose-only effect, or another doubt; inactive = no such curve, though single readings can be large or run the other way;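 note: the enzyme is Sfp with the accession as filed and its product quenches rhodamine fluorescence; potency is the fitted concentration of half-maximal effect; 0% = enzyme reaction without inhibitor and -100% = no enzyme wells; top concentration of the series not given in the record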
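Fluorescence-quenching assay with 15 nM Sfp, 5 uM rhodamine-CoA and 12.5 uM BHQ-2-labelled ybbR peptide in pH 7.6 Hepes/MgCl2 buffer. Enzyme was pre-incubated with compound for 15 min at room temperature. Rate was taken from the 30-min fluorescence change (525/598 nm).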
TRPV1 PAM – potentiators of human vanilloid receptor 1 (TRPV1). Q8NER1. TRPV1-expressing cells, Fluo-8 calcium influx, capsaicin EC20 potentiation; host cell line not named in the record; control for the full effect not named in the record. potentiation, % at 8.33 µM. 0.02% of 320,000 active. AID 540277; active means potentiation above 80%; inconclusive means 30% to 80%; inactive means below 30%; note: 0% is about no effect
Target sequence (Q8NER1 whole entry, looked up): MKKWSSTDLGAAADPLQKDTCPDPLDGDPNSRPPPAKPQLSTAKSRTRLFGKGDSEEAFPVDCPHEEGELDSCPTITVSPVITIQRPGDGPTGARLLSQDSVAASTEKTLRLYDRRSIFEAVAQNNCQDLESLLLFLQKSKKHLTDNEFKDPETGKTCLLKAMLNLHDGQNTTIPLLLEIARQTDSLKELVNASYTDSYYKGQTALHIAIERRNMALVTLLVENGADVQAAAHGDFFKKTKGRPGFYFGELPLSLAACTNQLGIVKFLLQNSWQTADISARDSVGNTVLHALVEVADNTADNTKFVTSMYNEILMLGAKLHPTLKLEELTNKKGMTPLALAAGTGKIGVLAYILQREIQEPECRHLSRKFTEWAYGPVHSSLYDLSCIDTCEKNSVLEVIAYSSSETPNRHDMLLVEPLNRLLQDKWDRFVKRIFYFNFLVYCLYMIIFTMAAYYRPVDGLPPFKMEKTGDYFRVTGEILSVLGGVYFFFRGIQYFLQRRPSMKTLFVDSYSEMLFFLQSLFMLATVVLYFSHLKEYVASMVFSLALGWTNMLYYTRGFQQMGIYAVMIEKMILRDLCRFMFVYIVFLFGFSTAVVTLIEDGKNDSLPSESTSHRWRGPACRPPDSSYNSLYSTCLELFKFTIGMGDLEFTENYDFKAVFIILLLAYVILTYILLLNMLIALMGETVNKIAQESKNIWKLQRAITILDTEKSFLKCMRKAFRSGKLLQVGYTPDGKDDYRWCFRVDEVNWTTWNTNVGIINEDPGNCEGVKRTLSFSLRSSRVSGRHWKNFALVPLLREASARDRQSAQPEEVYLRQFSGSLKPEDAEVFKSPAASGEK
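Fluo-8 calcium influx in TRPV1-expressing cells, kinetic read (ex 480/em 520 nm). Compound added and read 3 min for agonist activity, followed by capsaicin at EC20 final and 2 min further read for enhancement.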
TRPML1 agonist – human mucolipin-1 channel agonism; 0.12% of 410,000 active; activation, % (test concentration not listed); TRPML1-expressing cells, Ca2+ dye fluorescence, FDSS; host cell line not named in the record; reference of the full effect not given here; AID 624414; in the data active = activation above about 50%; inconclusive = about 30% to 50%; inactive = below about 30%; note: 0% is about no effect; the text of the record puts the active cut at 80%
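Tet-induced TRPML1-DL cells, 1,500 per well, cultured overnight, were loaded with a no-wash Ca2+ dye for 45–90 min. Calcium fluorescence was recorded on the FDSS for 110 s after compound addition, before the EC80 agonist (4 uM 54-4) was added.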
PINK1 expr mod – changes PINK1 expression; PINK1 immunofluorescence, high-content cytometry, 24 h; 0.2% of 410,000 active; Potency, µM (highest dose often 76.6 µM), for inactives: at the top dose activation (PINK1 increase), hits mostly activators; active = well fitted activation curve with a large enough effect; inconclusive = small, poorly fitted or top-dose-only effect; inactive = flat fitted curve, though single readings scatter; cell line not stated here;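 note: potency is the fitted concentration of half-maximal effect; % of control where 0% means no effect; nearly all actives have a fitted effect of over 65% in size; a mitochondrial uncoupler was the plate control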
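Stable cell line treated 24 h with compounds at 5 concentrations (CCCP controls), then fixed and immunostained for PINK1 plus nuclear and cell stains; PINK1 immunofluorescence quantified by laser-scanning microplate cytometry.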
An asterisk follows results filed as active; ? = inconclusive; / = no result given; & = joins results of further samples; [ ] = remark or other dose.

SMILES | TRPML1 inh | ClpP mod | Menin-MLL FL inh | Sfp inh | TRPV1 PAM | TRPML1 agonist | PINK1 expr mod
CCOC(=O)c1ccc(NC(=O)NC2CCN(CC(=O)NCc3ccc4c(c3)OCO4)CC2)cc1 | -8.6 | 1.5% | -1.6 | 10.5% | 0.0 | 0.3 | -2.4%
Cc1ccnc2c(N3C(=O)C4C5c6ccccc6C(c6ccccc65)C4C3=O)cccc12 (stereo not given) | 6.1 | 0.4% | 6.9 | -3.8% | ? | 1.0 | -0.7%
COC(=O)c1ccc(C(=O)OC)c(NC(=O)CSCC(=O)O)c1 | -3.9 | / | 4.8 | 5.9% | 13.8 | 1.0 | -0.3%
COc1ccc(C2CC(=O)N(Cc3ccccc3)c3c2c(C)nn3-c2nc(C)cc(C)n2)c(OC)c1 (stereo not given) | -26.8 | 1.8% | / | / | / | -1.1 | -0.2%
CCCCOc1[nH]c2nc(-c3ccco3)n(Cc3ccco3)c(=N)c2c1C#N | 4.2 | -12.2% | ? | -7.4% | 13.4 | -0.8 | 0.9%
Cc1ccc(-c2cc(C(=O)NCCCN3CCOCC3)c3ccccc3n2)cc1C | -0.4 | / | 1.7 | -0.8% | 11.7 | -0.3 | 1.0%
CC(=O)c1ccc(NC(=O)CSc2nc(=O)n(Cc3ccccn3)c3c2CCC3)cc1 | 32.1 | -15.0% | / | / | / | 1.4 | -1.1%
CCn1cc(C(=O)NC2CCCC2)c(=O)c2cc(S(=O)(=O)N3CCOCC3)ccc21 | 0.1 | / | / | / | / | 0.6 | -0.5%
C[C@@H](NC(=O)c1coc(=O)c(Br)c1)c1ccccc1 | -0.1 | 24.4% | 2.0 | 10.9% | -7.8 | 0.1 | 5.5%
CC(C)CNS(=O)(=O)c1cc(C(=O)O)c(Cl)cc1Cl | / | 1.8% | -1.7 | ? | -4.2 | / | 1.9%
Cc1ccc(C(=O)NC(C)C2CCCO2)o1 (stereo not given) | 0.6 | 0.6% | / | 9.2% | -31.3 | 0.4 | 0.6%
Cc1ccc(NC(=O)C2CC(=O)n3c(nc4ccccc43)N2)cc1Cl (stereo not given) | 35.6 | -2.3% | 0.7 | 18.8% | 23.8 | 2.1 | 2.9%
Cc1ccc(Nc2c(-c3cccc(Cl)c3)nc3cccc(C)n23)cc1 | 16.4 | 4.2% | / | / | / | 2.4 | ?
CCOC(=O)N1CCN(c2cccc(C)c2C)CC1 | -7.2 | -2.1% | 0.1 | -5.2% | 7.8 | -0.5 | 4.7%
Cc1cc(=O)c(C(=O)O)nn1-c1ccccc1[N+](=O)[O-] | 0.9 | / | 8.0 | 28.5% | 1.1 | 0.6 | 1.5%
CCN(CC)c1ccc(NC(=S)NC(=O)C2CCC2)cc1 | 6.0 | -0.9% | / | 4.9% | -6.2 | 1.2 | 4.6%
CC1=CC(=O)N(c2cccc(C(F)(F)F)c2)C1c1ccc(Cl)cc1 (stereo not given) | -5.6 | -1.9% | -4.2 | -7.5% | ? | 1.9 | -1.8%[38.3 µM]
NS(=O)(=O)c1ccc(NC(=O)COC(=O)C2CCCCC2)cc1 | -23.1 | / | -1.5 | 26.8% | ? | 2.3 | -1.9%
Brc1ccc(Sc2cnc3ccccc3n2)cc1 | -14.0 | -2.5% | 5.3 | 4.2% | 12.6 | 1.2 | 0.9%
CCOC(=O)c1ccn(-c2nc(-c3cccc(OC)c3)cc(C(F)(F)F)n2)n1 | -16.5 | 4.3% | / | / | / | 1.0 | 2.6%
Cc1ccccc1C(=O)c1cccn1CC(=O)NC1CCCC(C)C1C (stereo not given) | 7.0 | 0.4% | -4.7 | 18.5% | -20.8 | 2.8 | -0.7%
Cn1c(SCCN2CCCC2)nnc1C1CCN(S(=O)(=O)c2cccc(F)c2)CC1 | 13.5 | / | 2.0 | -13.0% | -3.9 | 0.0 | 1.9%
CCOC(=O)Cc1csc(NC(=O)CSc2nnnn2-c2ccc(CC)cc2)n1 | -3.5 | -4.2% | -1.9 | 10.5% | -5.3 | 1.3 | 3.2%
CC(O)c1nc2ccccc2n1C1CCCCC1 (stereo not given) | -5.7 | -1.5% | 2.0 | 3.3% | -4.1 | 0.9 | ?
O=C(O)CCN1C(=O)/C(=C\c2cccc(Oc3ccccc3)c2)SC1=S | 1.7 | -0.4% | 5.7 | -7.6% | 10.5 | -1.1 | 5.1%
CCc1cccc(C)c1NC(=O)Cn1nc(C)n2cccc2c1=O | 17.5&-10.2 | 0.0%&-1.2% | 2.0 | 11.5% | -4.1 | 0.7&1.3 | 0.8%&-0.4%
COCCCNC(=O)c1c[nH]c2ccc(S(=O)(=O)N3CCc4ccccc43)cc2c1=O | 11.2 | / | 4.5 | -17.4% | -5.4 | 0.0 | 12.7%
CCn1nnnc1NCc1ccc(Cl)cc1 | 9.2 | 1.3% | -0.9 | 13.1% | -5.9 | 0.0 | 0.4%
CCOc1ccc(-c2c(C)nn3c(C)c(C(=O)Nc4ccccc4C(=O)OC)cnc23)cc1OCC | 18.8 | -0.6% | / | / | / | 1.6 | 0.5%
CCN(CC)CCOC(=O)c1ccc(N/C=C(/C#N)c2nc(-c3cccc(OC)c3)cs2)cc1 | -0.1 | / | ? | ? | -9.2 | 1.0 | 0.1%
COc1ccc(NC(=O)C2CCCN(S(=O)(=O)c3ccc4[nH]c(=O)ccc4c3)C2)cc1Cl (stereo not given) | 3.9 | 4.4% | / | / | / | 1.4 | 1.8%
CCOc1ccc2nc(N/C(N)=N/C(=S)Nc3cccc(C)c3)nc(C)c2c1 | 51.4 | ? | -0.6 | 2.6% | 5.3 | -0.2 | 3.2%
Cc1c(CN(C)C(=O)c2ccc(Br)o2)cnn1C | -4.8 | 0.7% | 1.1 | -0.2% | 23.7 | -1.1 | -1.8%
Cc1cc(C)cc(NC(=O)C2CCC(CNS(=O)(=O)c3ccc4c(c3)C(C)(C)C(=O)N4C)CC2)c1 (stereo not given) | 16.0 | -0.8% | / | / | / | 2.8 | -0.1%
COc1ccccc1N1CCN(C2CCCN(C(=O)CN3CCCC3=O)C2)CC1 (stereo not given) | -2.9 | 1.1% | / | 6.9% | 7.4 | 1.0 | 0.5%
O=C(CSCc1nc2ccccc2[nH]1)Nc1ccccc1 | 3.0 | -4.3% | -3.5 | 12.7% | -3.2 | 0.1 | 1.3%
C(#CCN1CCOCC1)COCCCOC(c1ccccc1)c1ccccc1 | 29.3 | -0.1% | 2.6 | 7.0% | 13.1 | 1.8 | ?
O=C(NCCS(=O)(=O)NCc1ccc(F)cc1)c1ccc2c(c1)OCO2 | 1.4 | / | / | / | -10.3 | -0.2 | 1.4%
COc1cccc(OCC(=O)Nc2c3c(nn2-c2ccc(F)cc2)CS(=O)(=O)C3)c1 | 12.4 | 1.2% | / | -10.1% | -1.6 | 1.1 | -2.3%
CC(C)C(=O)Nc1cccc(NC(=O)CCN2C(=O)c3ccccc3S2(=O)=O)c1 | 9.2 | -2.4% | -1.5 | 4.8% | 2.9 | 0.0 | /
COc1ccc(-c2nn(-c3ccccc3)cc2C(N)=O)cc1OC | 6.3 | -9.3% | 1.5 | 15.9% | -7.7 | 1.1 | 5.1%
Nc1cccc(Oc2c(F)c(F)c(Oc3cccc(N)c3)c(F)c2F)c1 | -0.1 | -1.5% | 4.2 | 14.2% | -3.5 | -0.2 | 2.3%
O=C(COc1ccccc1Cl)Nc1nnc(S(=O)(=O)N2CCCCCC2)s1 | -1.9&4.2 | -5.8%&-1.0% | 3.2 | 2.4% | ? | 0.4&0.2 | 2.0%&0.9%
CC(C)c1ccc(NC(=O)C(c2ccccc2)N2CC(=O)Nc3ccccc32)cc1 (stereo not given) | 23.3 | -0.9% | 3.5 | -25.0% | -27.4 | -0.2 | 6.9%
Cc1cccc(C(=O)Nc2ccc3oc(-c4cccc5c(Br)cccc45)nc3c2)c1 | 11.6 | 3.7% | / | / | / | -1.0 | 2.0%
O=C(Nc1ccc2c(c1)OCO2)N1CCN(c2cccc(C(F)(F)F)c2)CC1 | 12.6 | -3.4% | 2.5 | -2.6% | -10.6 | 1.2 | -1.9%
CSc1nc2cc(C)nn2c(-c2ccccc2)c1C#N | -10.6 | 0.1% | 3.6 | 7.7% | 16.8 | 2.0 | 1.5%
O=C(NNC1OC(CO)C(O)C(O)C1O)c1cccc(Br)c1 (stereo not given) | 7.1 | -3.5% | -0.8 | -7.7% | 23.5 | -0.1 | -0.4%
C=CCN1C=C2C(=O)C(C)(OC(=O)CC)C(=O)C=C2C=C1CCCC (stereo not given) | 65.3 | -5.8% | -0.2[11.7 µM] | 15.4%&12.0% | -29.9 | 0.3 | -0.2%
COc1ccccc1C1C=C(c2ccc(Cl)cc2)Nc2nc(NS(C)(=O)=O)nn21 (stereo not given) | / | / | ? | 14.1% | -8.8 | / | /

Later entries
SMILES | TRPML1 inh | ClpP mod | Menin-MLL FL inh | Sfp inh | TRPV1 PAM | TRPML1 agonist | PINK1 expr mod
O=c1c2cc(-c3ccccc3)sc2nc2n1CCC2 | / | / | -8.3 | 13.2% | ? | / | /
CCc1cccc(CC)c1NC(=O)c1cccc(S(=O)(=O)N2CCN(C)CC2)c1 | 38.0 | 0.8% | / | -22.3% | 12.7 | 0.8 | 1.5%
CN(C)C(=O)c1ccc(-c2ccc3ncnc(Nc4ccc(F)cc4)c3c2)cc1 | / | / | 0.5 | 16.1% | / | / | -0.3%
CCOC(=O)c1c(-c2ccc(C)s2)csc1N | 3.0 | -1.8% | -0.6 | 11.2µM* | 14.4 | 2.0 | 2.2%
CCCCN(C(=O)/C=C/c1ccc(OCC(C)C)c(OCC)c1)c1c(N)n(CCC)c(=O)[nH]c1=O | -7.5 | / | -1.0 | 27.6% | 13.8 | -0.4 | 0.5%
COCCCn1c(SCC(=O)Nc2oc(C)c3c(C)n[nH]c(=O)c23)nc2ccccc2c1=O | 0.4 | -0.7% | / | / | 0.3 | -0.6 | 0.2%
CCOc1ccc(CNC(=O)Cn2ccc3cc(S(=O)(=O)N4CCCCCC4)ccc32)cc1 | 12.6&1.4 | -6.5%&-12.9% | -7.7 | -6.7% | -8.0 | 1.6&0.4 | 3.7%&2.2%
Cc1ccc(C)c(-c2csc(NC(=O)c3cnccn3)n2)c1 | -2.6 | -19.1% | 1.4 | -22.4% | -5.4 | -0.9 | 11.8%
Cc1cccc(OCC(=O)Nc2cccc(C(=O)Nc3ccccc3C(=O)O)c2)c1 | 18.5 | -2.2% | -0.7 | 16.5% | 4.1 | 3.8 | -1.5%
